# gsp antag: gsp mutant antagonism; gsp-mutant cells, cAMP HTRF, 30 min; control for the full effect not named in the record; Potency, µM (series often up to 76.9 µM), for inactives: top-dose activity change, negative = inhibition, usual class: inhibitors; 340,000 tested, 0.4% active; AID 624288; active = falling curve of any shape with a large fitted effect; inconclusive = falling curve, mostly with a smaller effect; inactive = flat or rising curve; cell line not stated here;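 also: intracellular cAMP measured with PDE inhibitor Ro 20-1724 present during compound exposure; potency is read from the fitted curve at half-maximal effect; % is scaled to controls: 0 for no effect and ±100 for the full control effect; nearly all actives have a fitted effect of over 65% in size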
#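 HTRF cAMP measurement after 30 min RT detection following 30 min, 37C compound treatment alongside […] (added as 300 uM solution) in G418-selected cells seeded at 2000/well and grown 16–24 h.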
# ClpP mod: qHTS Assay for Activators of ClpP; purified B. subtilis ClpP, FRET peptide cleavage, 20 min; Potency, µM (top dose mostly 57.5 µM), without a hit: at the highest dose activity change, negative = active; 340,000 tested, 1.9% active; AID 651965, 2013; active = well fitted falling curve with a large enough effect; inconclusive = small, poorly fitted or top-dose-only effect; inactive = no such curve, though single readings can be large or run the other way; also: potency is read from the fitted curve at half-maximal effect; the source files actives as falling curves though it sought activators and does not explain the sign; nearly all actives have a fitted effect of over 65% in size; many hits overshoot -100%
# Target sequence (P80244 whole entry, looked up): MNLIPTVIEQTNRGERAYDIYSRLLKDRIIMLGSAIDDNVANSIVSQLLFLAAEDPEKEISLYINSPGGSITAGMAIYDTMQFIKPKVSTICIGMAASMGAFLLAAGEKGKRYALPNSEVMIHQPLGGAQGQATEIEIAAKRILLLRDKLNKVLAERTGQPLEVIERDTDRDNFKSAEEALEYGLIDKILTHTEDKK
#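 Purified B. subtilis ClpP, 10 microg/mL final in Tris/HCl pH8 with KCl, BSA, glycerol and Tween-20, cleaved an Abz/nitrotyrosine-quenched decapeptide. Fluorescence (ex 320, em 430) was read at 0 and 20 min at room temperature. Delta was normalized to 5.8 microM ADEP and DMSO/no-enzyme controls.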
# Sfp inh: Sfp phosphopantetheinyl transferase inhibition; Q9F4F7; Biochemical Sfp PPTase activity, qHTS; Potency, µM, without a hit: max response, negative = inhibition, hits mostly inhibitors; 310,000 tested, 3.5% active; active = well fitted inhibition curve with a large enough effect; inconclusive = small, poorly fitted or top-dose-only effect, or another doubt; inactive = no such curve, though single readings can be large or run the other way;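 also: the enzyme is Sfp with the accession as filed and its product quenches rhodamine fluorescence; potency is read from the fitted curve at half-maximal effect; 0% = enzyme reaction without inhibitor and -100% = no enzyme wells; top concentration of the series not given in the record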
#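 Fluorescence-quenching assay: 15 nM Sfp-PPTase preincubated 15 min at room temperature with compound, then 5 uM rhodamine-CoA and 12.5 uM BHQ-2-labelled YbbR peptide added. Fluorescence (ex 525/em 598 nm) read at start and after 30 min; difference gives rate.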
# TRPV1 PAM: potentiators of human vanilloid receptor 1 (TRPV1) | Q8NER1 | TRPV1-expressing cells, Fluo-8 calcium influx, capsaicin EC20 potentiation; host cell line not named in the record; control for the full effect not named in the record | potentiation, % at 8.33 µM | 320,000 tested, 0.02% active | AID 540277; active means potentiation above 80%; inconclusive means 30% to 80%; inactive means below 30%; also: 0% is about no effect
# Target sequence (Q8NER1 whole entry, looked up): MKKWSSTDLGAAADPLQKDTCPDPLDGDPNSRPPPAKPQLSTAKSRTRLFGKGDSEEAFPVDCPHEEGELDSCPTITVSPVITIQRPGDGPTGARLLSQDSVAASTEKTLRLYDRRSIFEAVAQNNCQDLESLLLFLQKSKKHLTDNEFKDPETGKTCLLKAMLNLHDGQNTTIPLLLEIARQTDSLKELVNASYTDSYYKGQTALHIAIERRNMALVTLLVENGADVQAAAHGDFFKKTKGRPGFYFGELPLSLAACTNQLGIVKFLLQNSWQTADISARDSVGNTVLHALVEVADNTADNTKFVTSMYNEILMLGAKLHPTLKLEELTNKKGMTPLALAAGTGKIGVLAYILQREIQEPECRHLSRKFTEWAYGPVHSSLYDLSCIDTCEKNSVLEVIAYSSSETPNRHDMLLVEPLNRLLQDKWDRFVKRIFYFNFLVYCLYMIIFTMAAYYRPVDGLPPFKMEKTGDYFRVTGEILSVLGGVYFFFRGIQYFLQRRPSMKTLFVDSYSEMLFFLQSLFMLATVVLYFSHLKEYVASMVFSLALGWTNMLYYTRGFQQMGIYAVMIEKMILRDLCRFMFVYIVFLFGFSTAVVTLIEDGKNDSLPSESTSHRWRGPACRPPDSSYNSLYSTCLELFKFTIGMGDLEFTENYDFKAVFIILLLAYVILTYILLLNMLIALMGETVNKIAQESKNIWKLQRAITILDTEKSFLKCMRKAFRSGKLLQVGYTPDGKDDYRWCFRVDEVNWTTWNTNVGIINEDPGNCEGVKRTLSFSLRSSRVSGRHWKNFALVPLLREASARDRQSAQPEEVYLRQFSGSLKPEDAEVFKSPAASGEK
#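 Cells expressing TRPV1 were dye-loaded with Fluo-8 and read kinetically: 10 s baseline, 3 min after compound (agonist portion), then 2 min after EC20 capsaicin (allosteric enhancer portion). Calcium-bound dye fluorescence at 480/520 nm.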
# CtBP-E1A blk: blocks the CtBP interaction with E1A; AlphaScreen GST-E1A/His-CtBP binding, 1536-well; stronger effect = lower value; control for the full effect not named in the record; AID 651724; activity change, % (concentration not given with the values); 340,000 tested, 0.49% active; in the data active means activity change below about -65%; inconclusive means about -30% to -65%; inactive means above about -30%; also: % is scaled to controls: 0 for no effect and ±100 for the full control effect
#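 Steps: dispense buffer (Tris pH 8.0, NaCl 300 mM, TCEP 1 mM, BSA, Tween 20); add 5X protein mix (GST-E1A, His-CtBP, 125 nM each); pin 23 nL compound; 2 h at 37 °C, dark; add 5X beads (50 ug/mL); 1 h; read.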
# gsp ag: gsp mutant agonism; gsp mutant cells, cAMP HTRF, 30 min; control for the full effect not named in the record; Potency, µM (top dose mostly 76.9 µM), for the others: top-dose activation (cAMP increase), actives largely listed as activators; 340,000 tested, 0.13% active; AID 624287; active = well fitted activation curve with a large enough effect; inconclusive = small, poorly fitted or top-dose-only effect, or another doubt; inactive = no such curve, though single readings can be large or run the other way; cell line not stated here;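 also: phosphodiesterase inhibitor Ro 20-1724 added with compounds to block cAMP breakdown; potency is read from the fitted curve at half-maximal effect; nearly all actives have a fitted effect of over 60% in size; about a fifth of the inactives were tested at one dose only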
#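 Cells in DMEM/10% FBS with G418 were pretreated with compounds in DMSO plus […] (300 uM stock) for 30 min at 37C. cAMP was measured by HTRF (cAMP-d2 plus anti-cAMP antibody-K) after 30 min at room temperature.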
# Menin-MLL FL inh: displaces fluorescein MLL peptide from human menin | Fluorescence polarization, fluorescein-MLL peptide displacement from menin | FP activity change, % at 61.4 µM | 290,000 tested, under 10 active | AID 1766; inconclusive = falling polarisation curve, or a change in total fluorescence; inactive = total fluorescence flat and polarisation flat or rising; no compound was filed as active; the % refers to the polarisation; negative = inhibition;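 also: % of control where 0% means no effect; inhibitors lower the polarisation; unlabelled MLL peptide was the positive control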
# * = called active by the depositor; ? = inconclusive; / = not tested or not shown; & = joins results of further samples; [ ] = remark or other dose.
item	Structure	Sfp inh	gsp antag	Menin-MLL FL inh	ClpP mod	gsp ag	TRPV1 PAM	CtBP-E1A blk
1	Cc1ccc(C(=O)NCC(=O)OCC(=O)c2ccc3c(c2)NC(=O)CO3)cc1C	-5%	/	-8.1	/	29%[15.4 µM]	-2	18
2	CCNC(=S)N1CCN(c2ccc([N+](=O)[O-])cc2)CC1	2%	-14%	3.1	2.6%	0%	-11	-6
3	Cc1ccc(S(=O)(=O)N2CCCCC2)cc1C(=O)N1CCCCCC1	/	-8%	/	1.4%	16%	-13	4
4	CC(C)NC(=O)Nc1ccc2c(c1)C(=O)N([C@@H](C)CO)C[C@@H](C)[C@H](CN(C)Cc1ccccc1)OCCCC[C@H](C)O2	/	/	/	-5.9%	14%	/	-4
5	CN1CCN(CC(=O)Nc2ccccc2Sc2ccccc2)CC1	79µM*	18%	0.4	/	-2%[15.4 µM]	10	1
6	Cc1ccc(S(=O)(=O)N/N=C/c2cccc3c2OCCO3)cc1	-5%	0%	-0.2	-3.4%	22%	8	-1
7	CCOC(=O)N1CCN(S(=O)(=O)CCNC(=O)c2cccc(OC)c2)CC1	/	5%	/	-2.7%	5%	16	-20
8	O=C(ON=C1CCN(S(=O)(=O)c2ccccc2)CC1)c1ccc(Cl)cc1	12%	8%	1.6	-0.3%	7%	-16	3
9	CCOc1ccc(S(=O)(=O)N2CCOCC2)cc1NS(=O)(=O)c1ccc(OC)c([N+](=O)[O-])c1	/	-7%	/	-1.5%	7%[15.4 µM]	15	3
10	COc1ccc(-c2nnc(SCc3cccc(C#N)c3)o2)cc1	4%	-19%	-0.1	-1.4%	17%	3	3
11	CSc1ccccc1NC(=O)COC(=O)/C=C/c1ccco1	/	-3%	/	-2.8%	10%[15.4 µM]	/	5
12	COC(=O)c1sc2ccccc2c1-n1cccc1C(=O)C(=O)Nc1ccc(OC)cc1	-4%	3%	3.0	-1.3%	28%	/	-22
13	CCOC(=O)c1c(C)[nH]c(C(=O)OCC(=O)NC2CCS(=O)(=O)C2)c1C (stereo not given)	14%	9%	3.1	-2.9%	5%	-8	-1
14	CCN(c1ccccc1C(=O)O)S(=O)(=O)c1cccc2nsnc12	-4%	4%	-8.3	/	5%	3	-9
15	O=C(Nc1cccc(Cl)c1)C1C2C=CC3(O2)C1C(=O)N(CCCN1CCCCC1)C3C(=O)NC1CCCCC1 (stereo not given)	15%	11%	-2.0	/	10%	-8	-2
16	CC1CC(C)(C)NC(=S)N1CCCC(=O)N1CCN(c2ccccc2F)CC1 (stereo not given)	9%	-2%	-3.1	-3.8%	-3%[15.4 µM]	7	12
17	Cc1oc(-c2ccccc2F)nc1CS(=O)(=O)CC(=O)N1CCN(Cc2ccccc2)CC1	16%	-21%	1.6	-3.2%	-72%[inhibitor]	-6	-9
18	Cc1ccc(OC(=O)CCN2C(=O)c3ccccc3C2=O)cc1C	-5%	-5%	4.3	/	19%[15.4 µM]	-15	10
19	CCOC(=O)CC1CCCCN1Cc1cn(C)nc1-c1ccc2c(c1)OCCO2 (stereo not given)	24%	1%	2.7	/	3%[15.4 µM]	9	-9
20	CC(=O)c1cnn(-c2cc(Oc3ccccc3C)ncn2)c1C	-7%	4%	-1.2	-25%	-3%	-16	0
21	Cc1ccc(NC(=O)C2CCCN2C(=O)c2cccs2)c(C)c1 (stereo not given)	0%	7%	1.3	/	27%	13	0
22	CC(=O)OC1CCC2(C)C(=CCC3C2CCC2(C)C3CC3OC4(CCC(C)CN4)C(C)C32)C1 (stereo not given)	9%	6%	5.0	2.1%	/	-10	4
23	O=C(Nc1cccc(C(=O)O)c1)/C(=C\c1ccco1)NC(=O)c1ccccc1Cl	-5%	-4%	/	1.2%	-1%[15.4 µM]	-1	-1
24	FC(F)c1nnc2ccc(Cl)nn12	17%	-2%	-0.7	/	15%	6	4
25	COc1ccc(Cn2c(C)c(C)c(C#N)c2NC(=O)Nc2ccccc2)cc1	5%	-3%	7.3	-8.7%	8%[15.4 µM]	-16	-2
26	O=C(c1cnn(C(=O)c2ccccc2F)c1)c1ccccc1O	/	15%	/	48%	-6%	1	1
27	O=C(NNC(=S)Nc1ccccc1)c1cc(-c2cccnc2)nc2ccccc12	1%	-17%	-4.5	-5.8%	1%[15.4 µM]	6	2
28	Cn1nccc1C(=O)NC1CCCc2c1cnn2-c1ccc(C(C)(C)C)cc1 (stereo not given)	3%	-13%	/	-16%	-5%[15.4 µM]	4	8
29	Cc1cc(S(=O)(=O)NCCC2=CCCCC2)ccc1Br	/	8%	/	-8.1%	2%	-28	-2
30	Cn1c(=O)c2c(nc(NCCO)n2C)n(C)c1=O	17%	17%	-2.1	0.7%	21%	-16	-3
31	CCCN1CCN(CCCNC(=O)CN2C(=O)c3cccnc3Oc3ccc(C)cc32)CC1	7%	3%	4.6	0.9%	-44%[inhibitor]	7	2
32	CN1CCN(c2ccc(NC(=O)c3ccc4c(c3)OCO4)cc2)CC1	2%	-18%	-0.8	0.2%	-31%[inhibitor]	-4	5
33	CCc1c(C)nc(SCCOc2ccc(OC)cc2)[nH]c1=O	13%	-7%	0.0	0.2%	-14%	/	3
34	CCc1nnc(NC(=O)CSc2nc3c(cc2C#N)CCCC3)s1	11%	10%	-0.7	2.4%	26%	7	2
35	Fc1ccc(-c2nnc(-c3ccc(Cl)cc3Cl)o2)cc1	9%	-3%	2.3	3.2%	?	-10	2
36	NS(=O)(=O)c1ccc(NCCCn2ccnc2)c([N+](=O)[O-])c1	-2%	-9%	0.2	0.5%	1%[15.4 µM]	-3	2
37	COc1ccccc1Nc1c([N+](=O)[O-])cncc1[N+](=O)[O-]	8%	-7%	-0.6	/	-23%	-8	-10
38	C=CCn1c(Cc2ccc(OC)cc2)nnc1SCc1nc2ccccc2c(=O)[nH]1	-10%	-13%	1.6	1.3%	11%	6	-2
39	CC(=O)Nc1sc2c(c1C(N)=O)CCC2	9%	2%	-0.8	-15%	-31%	10	4
40	O=C(c1cc(F)ccc1F)C1CCCN(Cc2cccn2-c2ccccn2)C1 (stereo not given)	4%	3%	4.8	-3.7%	17%	-9	/
41	O=C(Nc1cccc(Oc2c(F)c(F)c(F)c(F)c2F)c1)N1C[C@@H]2C[C@@H](C1)c1cccc(=O)n1C2	10%&6%	9%	-1.8&-2.7	-4.8%	12%	-10&-8	-1
42	COCCNC(=O)c1cn(C)c2ccc(S(=O)(=O)N(C)C3CCCCC3)cc2c1=O	10%	11µM*	-1.3	-0.1%	-15%	0	0
43	COc1cc(OC)c(/C=N/NC(=O)COc2cccc3cccnc23)c(OC)c1	16%	5%	5.8	5.4%	-32%[inhibitor]	5	/
44	CC(C)(C)c1nc(NC(=O)Nc2ccccc2)sc1Br	2%	-27%	2.9	1.2%	-26%	-20	5
45	Cc1cccc(Nc2nnc(SCC(=O)NC3CCCc4ccccc43)s2)c1 (stereo not given)	12%	?	1.3	-0.7%	6%[15.4 µM]	2	-5
46	COCCn1c(=S)[nH]c2cc(C(=O)NCC3CCCO3)ccc2c1=O (stereo not given)	?	0%	-0.8	1.8%	6%	?	7
47	CCC(C)C(NC(=O)c1ccccc1NC(=O)c1ccco1)C(=O)NC1CCCCC1 (stereo not given)	?	6%	3.2	-16%	10%	-11	4
48	O=C(NC1CC1)c1cccc(S(=O)(=O)N2CCOCC2)c1	/	7%	/	0.2%	-3%	0	/
49	COCCC(=O)N1CCC(n2nccc2NC(=O)CCc2ccccc2)CC1	6%	3%	/	/	1%[15.4 µM]	10	6
50	NS(=O)(=O)c1ccc(CNC(=O)CCC2CCCCC2)cc1	11%	8%	1.1	-2.5%	7%	-11	-2
51	COc1ccc(C2NC(=O)CCC2[N+](=O)[O-])cc1 (stereo not given)	15%	3%	-4.4	0.9%	1%[15.4 µM]	-6	6
52	CC1CCc2c(c3ccccc3n2C(=O)CCl)C1 (stereo not given)	-9%	-4%	1.0	/	-49%[inhibitor]	8	-22
53	COc1ccc(NC(=O)c2cccc(S(=O)(=O)NCc3ccccc3)c2)cc1S(N)(=O)=O	/	-6%	/	0.7%	-5%	-3	-5
54	CCOC(=O)c1ccccc1NC(=O)c1ccc2c(=O)n3c(nc2c1)CCCCC3	3%	?	4.5	-21%	-25%	-13	4
55	COc1cc2c(cc1OC)CN(C(=O)CN(C)S(=O)(=O)c1ccc(NC(C)=O)cc1)CC2	13%	-1%	3.0	/	5%[15.4 µM]	1	-4
56	Cc1cc2nc3c(=O)n(CCc4ccccc4)c(=O)[nH]c3nc2cc1N	7.9µM*	-10%	?	/	?	-30	-8

# The listing continues:
item	Structure	Sfp inh	gsp antag	Menin-MLL FL inh	ClpP mod	gsp ag	TRPV1 PAM	CtBP-E1A blk
57	Cn1c(=O)c2c(ncn2CC(=O)N/N=C/c2ccc(Br)s2)n(C)c1=O	0%	-1%	-1.8	-0.4%	?	6	-16
58	O=C(O)CCCCCNC(=O)CCn1nnc2ccccc2c1=O	9%	13%	6.4	-3.1%	20%	19	-10
59	COc1ccc(CCNC(=O)C2CCC(=O)N(C3CC3)C2)c(OC)c1 (stereo not given)	8%	5%	-0.9	-1.0%	5%	-4	-1
60	O=C(C1=C[C@@H](C2CCCCC2)C[C@@H](OCCCCO)O1)N1CCN(Cc2ccccc2)CC1	-17%	-5%	8.2	0.5%	?	-2	1
61	COCCCNC(=O)c1cccc(S(=O)(=O)N2CC3(C)CC2CC(C)(C)C3)c1 (stereo not given)	/	0%	/	1.6%	-12%	-5	0
62	COc1ccccc1NC(=O)NC1CCS(=O)(=O)C1 (stereo not given)	14%	-2%	-5.5	/	16%[15.4 µM]	-18	-17
63	CCCCN(C)C(=S)Nc1ccc2nc3n(c(=O)c2c1)CCCCC3	3%	7%	3.6	-14%	?	0	-16
64	CCOc1ccc(OCCSc2nc3ccccc3[nH]2)cc1	9%	?	0.3	-0.9%	6%	10	-8
65	COc1ccc(OC)c(S(=O)(=O)n2nc(-c3ccccc3)cc2N)c1	1%	-12%	2.4	0.8%	?	-6	-6
66	COc1ccc(SC[C@H](Cc2ccccc2)N2CCN(C)CCC2=O)cc1	9%	7%	3.2	0.0%	18%	-24	-2
